Screening results as filed in PubChem BioAssay.
Six1-Eya2 inh: inhibitors of human Six1/Eya2 interaction | activity change, % (test concentration not listed) | AlphaScreen GST-Six1/His-Eya2 binding, biochemical; stronger effect = lower value; control for the full effect not named in the record | actives 0.56% (n = 360,000); in the data active = activity change below about -65%; inconclusive = about -30% to -65%; inactive = above about -30%; further: on the % scale 0 is the no-effect control and ±100 the full control effect; compound concentration not given in the record
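Compounds are tested against tagged Six1 and Eya2 proteins bridged by glutathione donor and nickel acceptor beads; after a one-hour incubation at 37 °C without light, AlphaScreen emission is recorded.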
TRPML1 ag: activates the human TRPML1 channel | TRPML1-expressing cells, Ca2+ dye fluorescence, FDSS; host cell line not named in the record; reference of the full effect not given here | activation, % (concentration not given with the values) | actives 0.12% (n = 410,000) | Q9GZU1; in the data active = activation above about 50%; inconclusive = about 30% to 50%; inactive = below about 30%; further: 0% is about no effect; the text of the record puts the active cut at 80%
Target sequence (Q9GZU1 whole entry, looked up): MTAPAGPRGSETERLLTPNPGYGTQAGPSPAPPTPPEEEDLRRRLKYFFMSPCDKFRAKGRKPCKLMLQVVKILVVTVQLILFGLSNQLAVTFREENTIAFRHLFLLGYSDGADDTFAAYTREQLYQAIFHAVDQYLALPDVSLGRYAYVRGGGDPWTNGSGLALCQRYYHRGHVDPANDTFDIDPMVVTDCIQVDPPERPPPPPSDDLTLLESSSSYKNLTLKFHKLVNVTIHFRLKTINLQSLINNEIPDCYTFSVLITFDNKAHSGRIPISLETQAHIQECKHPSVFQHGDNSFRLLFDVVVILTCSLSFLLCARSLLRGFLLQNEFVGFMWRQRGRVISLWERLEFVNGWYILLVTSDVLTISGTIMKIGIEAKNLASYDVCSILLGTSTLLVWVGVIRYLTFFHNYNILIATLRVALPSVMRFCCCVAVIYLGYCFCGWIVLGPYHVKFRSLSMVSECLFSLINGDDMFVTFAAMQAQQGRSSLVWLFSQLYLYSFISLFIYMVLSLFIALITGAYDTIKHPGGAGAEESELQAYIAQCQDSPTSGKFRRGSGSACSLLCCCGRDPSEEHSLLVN
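Agonist activity was taken from a 110 s kinetic Ca2+ dye read on the FDSS after pinning compounds onto TRPML1-DL cells. The cells were seeded at 1,500/well with Tet inducer, incubated about 16 h, then dye-loaded at room temperature.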
TRPML1 inh: blocks the human TRPML1 channel; Q9GZU1; TRPML1-inducible cells, Ca2+ dye fluorescence, FDSS; stronger effect = lower value; inhibition of EC80 agonist-evoked calcium signal; activity change, negative = inhibition, % (concentration not given with the values); actives 0.02% (n = 390,000); AID 624415; in the data active means activity change below about -50%; inconclusive means about -30% to -50%; inactive means above about -30%;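 further: stimulus is agonist 54-4 at its EC80 concentration; on the % scale 0 is the no-effect control and ±100 the full control effect; compound concentration not given in the record; the text of the record puts the active cut at -80%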
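Tet-induced TRPML1-DL cells loaded with Ca8 no-wash calcium dye were read kinetically on FDSS. Compound addition was followed by EC80 agonist 54-4 (4 uM final); inhibition was read over 110 s.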
D2 PAM: positive allosteric modulators of human D2 dopamine receptor | P14416 | DiscoveRx D2 beta-arrestin cells, luminescence, 90 min; 100% = 57 uM dopamine signal | potentiation, % (no concentration beside the values) | actives 0.23% (n = 360,000); active = potentiation of 50% or more; inconclusive = 30% to 50%; inactive = 30% or less;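 further: compound concentration not given in the record; tested on top of an EC20 dose of dopamine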
Target sequence (P14416 whole entry, looked up): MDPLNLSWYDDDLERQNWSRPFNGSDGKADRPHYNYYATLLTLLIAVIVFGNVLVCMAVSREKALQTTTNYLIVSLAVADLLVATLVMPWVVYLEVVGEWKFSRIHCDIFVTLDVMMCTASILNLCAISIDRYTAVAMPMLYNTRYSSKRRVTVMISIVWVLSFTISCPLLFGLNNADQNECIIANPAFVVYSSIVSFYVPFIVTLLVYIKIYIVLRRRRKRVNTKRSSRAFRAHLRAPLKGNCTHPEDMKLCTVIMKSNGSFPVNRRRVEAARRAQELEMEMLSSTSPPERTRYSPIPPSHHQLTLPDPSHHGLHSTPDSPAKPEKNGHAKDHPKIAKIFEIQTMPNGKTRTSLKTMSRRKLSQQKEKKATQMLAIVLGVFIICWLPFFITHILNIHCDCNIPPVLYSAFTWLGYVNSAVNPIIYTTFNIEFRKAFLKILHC
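D2 cells co-treated with compound plus 50 nM dopamine (EC20) for 90 min at 37 deg C to detect potentiation. Beta-arrestin recruitment was read as enzyme-fragment luminescence after 1 h at ambient temperature. Full response was set by 57 uM dopamine.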
TRPV1 PAM: human TRPV1 potentiation. Q8NER1. TRPV1-expressing cells, Fluo-8 calcium influx, capsaicin EC20 potentiation; host cell line not named in the record; control for the full effect not named in the record. potentiation, % at 8.33 µM. actives 0.02% (n = 320,000); active means potentiation above 80%; inconclusive means 30% to 80%; inactive means below 30%; further: 0% is about no effect
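Fluo-8 calcium influx in TRPV1-expressing cells, kinetic read (ex 480/em 520 nm). Compound added and read 3 min for agonist activity, followed by capsaicin at EC20 final and 2 min further read for enhancement.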
CtBP-E1A blk: inhibitors of CtBP/E1A interaction | AlphaScreen GST-E1A/His-CtBP binding, 1536-well; stronger effect = lower value; control for the full effect not named in the record | activity change, % (test concentration not listed) | actives 0.49% (n = 340,000); in the data active means activity change below about -65%; inconclusive means about -30% to -65%; inactive means above about -30%; further: on the % scale 0 is the no-effect control and ±100 the full control effect; compound concentration not given in the record
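Protein mix (5X: 125 nM each GST-E1A, His-CtBP) was incubated with pinned compound 2 h at 37 deg C in dark, in 50 mM Tris pH 8.0 buffer with 300 mM NaCl. Glutathione donor and nickel acceptor beads followed; AlphaScreen signal read after 1 h.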
The depositor's hits bear a star; ? = inconclusive; . = not tested or not shown.

SMILES | Six1-Eya2 inh | TRPML1 ag | TRPML1 inh | D2 PAM | TRPV1 PAM | CtBP-E1A blk
O=S(=O)(NCc1ccccc1)c1cccc2nonc12 | 3 | 1.1 | 1 | -3 | -6 | 3
Cc1ccc2cc(C)c(SCC(=O)NCC3CCCO3)nc2c1 (stereo unspecified) | 10 | 2.8 | 8 | -3 | -20 | -9
CSc1ccc(C(=O)Nc2cc(S(=O)(=O)N3CCOCC3)ccc2N2CCOCC2)cc1[N+](=O)[O-] | 5 | -0.4 | 10 | 1 | . | .
Cc1cc(N2CCN(C/C=C/c3ccccc3)CC2)n2ncnc2n1 | 1 | 0.4 | 5 | 0 | 5 | 7
O=C(Nc1ccc(Br)cc1)NC1CCCCCCC1 | 10 | -0.2 | -1 | -10 | -10 | 11
N=c1c2c(ncn1CCCO)Oc1ccc3ccccc3c1C2c1ccccc1 (stereo unspecified) | -16 | 2.2 | -11 | -2 | -13 | -1
N#C/C(=C\c1ccc[nH]1)S(=O)(=O)c1ccccc1 | -3 | 2.9 | 9 | -2 | 10 | -4
O=C1CC(Cc2ccccc2)C(=O)N1c1ccccn1 (stereo unspecified) | 8 | 0.2 | 17 | -8 | 6 | -2
Cc1nc(NC(=O)CC(C)C)sc1-c1csc(Nc2ccc(Cl)cc2)n1 | -1 | -0.2 | 0 | -8 | -1 | 0
COc1ccccc1NC(=O)C(C)OC(=O)c1nc2nc(C)cc(C)n2n1 (stereo unspecified) | 2 | -0.1 | -26 | 15 | 18 | -8
COc1ccc(OC(C)C(=O)N2CCC(C)CC2)cc1 (stereo unspecified) | 15 | 0.0 | -6 | -16 | -6 | -8
O=C(Cn1c(=O)[nH]c2ccccc2c1=O)Nc1cccnc1 | 2 | 0.6 | 8 | -8 | -9 | .
O=c1cc(SCc2ccc(Cl)cc2Cl)nc[nH]1 | -1 | 1.8 | -10 | -7 | . | -1
Cn1c(=O)c2c(nc(CN3CCN(c4ccccc4F)CC3)n2CCCc2ccccc2)n(C)c1=O | 0 | 1.4 | 2 | -13 | . | 0
O=C(CSCc1ccc(F)cc1)NCc1ccco1 | 17 | 0.9 | -12 | -10 | 7 | 23
Cc1ccc(NC2=NC(c3ccc(F)cc3)n3c(nc(C)cc3=O)N2)c(C)c1 (stereo unspecified) | 5 | 0.2 | -5 | -11 | 1 | -8
CCNC(=S)NS(=O)(=O)c1ccccc1 | 4 | 1.1 | 30 | -18 | -5 | 6
CCn1c2c(c(=N)c3ccccc31)CCC2 | 1 | -0.3 | 6 | -10 | -7 | -11
Cc1ccc2cc(CN(Cc3ccco3)C(=S)NCC3CCCO3)c(=O)[nH]c2c1C (stereo unspecified) | -19 | 0.8 | 1 | -16 | -11 | -5
CC1(C(=O)O)CCCN(C(=O)c2ccc(OC(F)F)cc2)C1 (stereo unspecified) | 4 | -0.8 | . | 0 | . | 9

Exported tab-delimited: 6 of the compounds above
Compound	Six1-Eya2 inh	TRPML1 ag	TRPML1 inh	D2 PAM	TRPV1 PAM	CtBP-E1A blk
COc1ccc(OC(C)C(=O)N2CCC(C)CC2)cc1 (stereo unspecified)	15	0.0	-6	-16	-6	-8
O=C(Cn1c(=O)[nH]c2ccccc2c1=O)Nc1cccnc1	2	0.6	8	-8	-9	.
O=c1cc(SCc2ccc(Cl)cc2Cl)nc[nH]1	-1	1.8	-10	-7	.	-1
Cn1c(=O)c2c(nc(CN3CCN(c4ccccc4F)CC3)n2CCCc2ccccc2)n(C)c1=O	0	1.4	2	-13	.	0
O=C(CSCc1ccc(F)cc1)NCc1ccco1	17	0.9	-12	-10	7	23
Cc1ccc(NC2=NC(c3ccc(F)cc3)n3c(nc(C)cc3=O)N2)c(C)c1 (stereo unspecified)	5	0.2	-5	-11	1	-8

More results follow.
SMILES | Six1-Eya2 inh | TRPML1 ag | TRPML1 inh | D2 PAM | TRPV1 PAM | CtBP-E1A blk
CC(C)C(=O)Nc1ccc(NC(=O)c2ccc(COc3ccccc3)cc2)cc1 | -16 | -0.3 | -10 | -16 | 5 | 1
Cc1sc2nc(SCc3nc4ccccc4[nH]3)n(Cc3ccco3)c(=O)c2c1C | -1 | 3.0 | 26 | -5 | -3 | -12
O=C(Nc1ccccc1)c1ccc(S(=O)(=O)NCC2CCCO2)cc1 (stereo unspecified) | 0 | -0.4 | -13 | -1 | -4 | 6
O=C(c1cccnc1)N1CCN(c2c(Cl)cccc2[N+](=O)[O-])CC1 | -6 | -0.6 | -5 | -19 | -1 | -2
COc1ccc(NC(=O)C2(C)Cc3c(-c4cccc(C(N)=O)c4)ccnc3O2)cn1 (stereo unspecified) | 2 | -0.1 | 13 | -10 | . | 2
Cc1cc(NS(=O)(=O)c2ccc(NC(=S)NC(=O)c3ccc(Br)cc3)cc2)no1 | 0 | -0.1 | 8 | -20 | 27 | -3
CCN(CC)C(=O)CSc1nc2c(sc(=S)n2-c2ccccc2)c(=O)n1-c1ccccc1OC | -17 | 2.4 | 1 | -5 | 9 | -15
COc1ccc(C(=O)CSc2nnc(CNC(=O)c3ccccc3)n2C)cc1 | 12 | 1.1 | -11 | 13 | 4 | -4
Cc1cccc(-n2cc[nH]c2=S)c1C | 5 | 0.1 | 30 | -19 | 0 | -6
CCOC(=O)N1CCC(NC(=O)c2ccc(CS(=O)c3cccc(C)c3)o2)CC1 (stereo unspecified) | 1 | 0.2 | 7 | -5 | -5 | 1

Retrieved by compound from the entries so far (2):
SMILES | Six1-Eya2 inh | TRPML1 ag | TRPML1 inh | D2 PAM | TRPV1 PAM | CtBP-E1A blk
CC(C)C(=O)Nc1ccc(NC(=O)c2ccc(COc3ccccc3)cc2)cc1 | -16 | -0.3 | -10 | -16 | 5 | 1
CCN(CC)C(=O)CSc1nc2c(sc(=S)n2-c2ccccc2)c(=O)n1-c1ccccc1OC | -17 | 2.4 | 1 | -5 | 9 | -15

(next part)
SMILES | Six1-Eya2 inh | TRPML1 ag | TRPML1 inh | D2 PAM | TRPV1 PAM | CtBP-E1A blk
O=C(N/N=C/c1cccc(C(F)(F)F)c1)c1cc2c(s1)-c1ccccc1CC2 | 5 | 2.1 | 3 | -4 | 2 | 5
CC(=O)c1c(O)cc(=O)oc1-c1ccc(C)cc1 | 12 | -0.3 | 0 | -8 | . | 5
CSc1ccc(CN(C)CC(=O)NC(=O)NCCC2=CCCCC2)cc1 | -7 | -0.6 | 14 | -8 | 0 | 10
O=C1c2ccccc2S(=O)(=O)N1CC1CC(c2ccc(Cl)cc2)=NO1 (stereo unspecified) | 2 | 1.3 | -12 | 9 | 1 | -1
O=C(CSc1n[nH]c(=O)n1C1CC1)Nc1ccccc1 | 0 | -0.4 | -4 | -3 | -2 | 8
CC(NC(=O)CN(C)CC(=O)Nc1cccc(F)c1)c1ccccc1 (stereo unspecified) | 3 | 1.5 | 6 | 7 | -12 | 5
Cc1ccc(CNS(=O)(=O)c2c(C)[nH]c(=O)[nH]c2=O)cc1 | 6 | 0.8 | 20 | 7 | -11 | 4
O=C(Nc1ccc(S(=O)(=O)N2CCCCC2)cc1)c1ccccc1Cl | 0 | 5.1 | 3 | 9 | -15 | -1
CSCCC(NS(=O)(=O)Cc1ccccc1)C(=O)NNc1ccccc1 (stereo unspecified) | 0 | -0.5 | . | -1 | . | 7
O=C(CCN1CCN(c2ccc(Cl)cc2)CC1)Nc1ccccc1F | -10 | 1.0 | -15 | -24 | -12 | 3

Rewritten as a markdown table: part of the list above
| SMILES | Six1-Eya2 inh | TRPML1 ag | TRPML1 inh | D2 PAM | TRPV1 PAM | CtBP-E1A blk |
| --- | --- | --- | --- | --- | --- | --- |
| O=C(N/N=C/c1cccc(C(F)(F)F)c1)c1cc2c(s1)-c1ccccc1CC2 | 5 | 2.1 | 3 | -4 | 2 | 5 |
| CC(=O)c1c(O)cc(=O)oc1-c1ccc(C)cc1 | 12 | -0.3 | 0 | -8 | . | 5 |
| CSc1ccc(CN(C)CC(=O)NC(=O)NCCC2=CCCCC2)cc1 | -7 | -0.6 | 14 | -8 | 0 | 10 |
| O=C1c2ccccc2S(=O)(=O)N1CC1CC(c2ccc(Cl)cc2)=NO1 (stereo unspecified) | 2 | 1.3 | -12 | 9 | 1 | -1 |

(further entries)
SMILES | Six1-Eya2 inh | TRPML1 ag | TRPML1 inh | D2 PAM | TRPV1 PAM | CtBP-E1A blk
COc1ccc(NC(=O)c2c(Nc3ccccc3)sc(C(=O)c3ccc(F)cc3)c2N)cc1 | -26 | 2.8 | 3 | 5 | 13 | -13
CN(C)c1ccc(NC2=C(Cl)C(=O)c3ccccc3C2=O)cc1 | ? | 4.9 | 8 | -7 | -2 | -20
O=C(Nc1cc(S(=O)(=O)N2CCOCC2)ccc1-n1cncn1)c1ccc(Cl)cc1 | 1 | . | . | 0 | -9 | -9
O=C(NCCO[N+](=O)[O-])c1cccnc1 | 3 | -0.3 | 5 | -7 | -1 | 2
COc1cccc(NC(=O)CN(C)C(=O)c2ccccc2OCc2c(C)noc2C)c1 | 4 | 1.3 | -5 | -66 | -8 | -5
Cc1ccc(-c2nnc(SCC(=O)N3CC(C)CC(C)C3)o2)cc1C (stereo unspecified) | 3 | 1.2 | 13 | -6 | -3 | 0
COc1cc(-c2nc3cnccn3c2Nc2c(C)cccc2C)ccc1O | -5 | -0.3 | -2 | 16 | 6 | -9
CC(C)(C)OC(=O)NCc1ccc(CNC(=O)c2nc[nH]c2C(=O)NCc2ccc(CNC(=O)OC(C)(C)C)cc2)cc1 | -13 | 0.9 | -17 | 2 | . | -20
CC(C)c1ccc(-c2nnn(Cc3nc4ccccc4s3)n2)cc1 | 32 | 5.8 | -8 | -6 | 2 | 20
CCCC(=O)N1CCC1(C)C(=O)Nc1ccc2c(c1)OCCO2 (stereo unspecified) | 4 | -0.9 | . | 0 | . | 9
COc1ccc(N2CCN(C(=O)[C@H](Cc3c[nH]c4ccccc34)NC(C)=O)CC2)cc1 | 23 | 0.1 | -6 | 4 | -4 | -17
O=S(=O)(Nc1nc2ccccc2nc1Cl)c1ccccc1 | -6 | -1.1 | -11 | 1 | 3 | .
CC1CCC(NC(=O)c2cccc(S(=O)(=O)N3CCOCC3)c2)CC1 (stereo unspecified) | 1 | -0.7 | -1 | -13 | . | 0
